# ALR inh: inhibitors of human ALR sulfhydryl oxidase, primary screen, biochemical, H2O2 detection, HRP-luminol luminescence, single point; 290,000 tested, 3.8% active; FAD-linked sulfhydryl oxidase ALR (Homo sapiens), P55789; purified ALR, DTT oxidation; inhibition, % (no concentration beside the values);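 active = mean and each replicate at 75% or more; inconclusive = only one of the two met; inactive = neither met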;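 also: stock transfer was 7.5 nL into about 7.5 µL; 0% = neutral wells and 100% = wells with inactivated enzyme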
# Vif A3G: inhibitors of Vif binding to APOBEC3G peptide, primary screen, biochemical, TR-FRET, GST-Vif 1-94, biotin-A3G peptide, dose response retest (AID 1117319) | Virion infectivity factor (Human immunodeficiency virus type 1 group M subtype B (isolate … | TR-FRET GST-Vif / biotin-A3G peptide binding; higher % means a stronger effect; test concentration not given here; strong numbers were not always called active | inhibition, %, or IC50 in µM where a hit was titrated | 260,000 tested, 0.57% active;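 active = above the screen mean plus three standard deviations and confirmed in dose response; inconclusive = results disagree or hit not tested in dose response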;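 also: Vif residues 1-94 fused to GST binding biotinylated APOBEC3G peptide 110-148; 0% = full assay without inhibitor and 100% = GST in place of GST-Vif; retest series ran down from 100 µM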
# Calb FLC: C. albicans growth inhibition with fluconazole, primary screen, CaCi-2 strain, Alamar Blue fluorescence; C. albicans CaCi-2 (fluconazole-resistant clinical isolate) + fluconazole, 48 h; growth inhibition, % (no concentration beside the values); 300,000 tested, 0.57% active; AID 1979, 2009;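 active = most replicates above 75%; inconclusive = exactly half above 75%; inactive = most below 75%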;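 also: all wells also contain fluconazole at 8 µg/ml as a sub-toxic cotreatment; 0% = median of DMSO wells and 100% = median of geldanamycin control wells; wells of about 8 µL received 7.5 nL stock; the first replicate is given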
# LANA-H2B inh: blockers of LANA interaction with H2A/H2B – biochemical, FP readout, HTS, primary screen | Protein LANA1 (Human herpesvirus 8 type P (isolate GK18)), Q9QR71 | cell-free LANA-H2A/H2B peptide, fluorescence polarization | inhibition, % (concentration not given with the values) | 320,000 tested, 0.6% active | AID 2629, 2010; in the data active = inhibition mostly above about 10%, no sharp cut-off; inactive = mostly below about 6.7%;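 also: stock transfer was 7.5 nL into about 10 µL; 0% = median of vehicle wells and 100% = median of positive control wells; one replicate is shown; the record names a cut of 25% in any replicate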
# Target sequence (Q9QR71 whole entry, looked up): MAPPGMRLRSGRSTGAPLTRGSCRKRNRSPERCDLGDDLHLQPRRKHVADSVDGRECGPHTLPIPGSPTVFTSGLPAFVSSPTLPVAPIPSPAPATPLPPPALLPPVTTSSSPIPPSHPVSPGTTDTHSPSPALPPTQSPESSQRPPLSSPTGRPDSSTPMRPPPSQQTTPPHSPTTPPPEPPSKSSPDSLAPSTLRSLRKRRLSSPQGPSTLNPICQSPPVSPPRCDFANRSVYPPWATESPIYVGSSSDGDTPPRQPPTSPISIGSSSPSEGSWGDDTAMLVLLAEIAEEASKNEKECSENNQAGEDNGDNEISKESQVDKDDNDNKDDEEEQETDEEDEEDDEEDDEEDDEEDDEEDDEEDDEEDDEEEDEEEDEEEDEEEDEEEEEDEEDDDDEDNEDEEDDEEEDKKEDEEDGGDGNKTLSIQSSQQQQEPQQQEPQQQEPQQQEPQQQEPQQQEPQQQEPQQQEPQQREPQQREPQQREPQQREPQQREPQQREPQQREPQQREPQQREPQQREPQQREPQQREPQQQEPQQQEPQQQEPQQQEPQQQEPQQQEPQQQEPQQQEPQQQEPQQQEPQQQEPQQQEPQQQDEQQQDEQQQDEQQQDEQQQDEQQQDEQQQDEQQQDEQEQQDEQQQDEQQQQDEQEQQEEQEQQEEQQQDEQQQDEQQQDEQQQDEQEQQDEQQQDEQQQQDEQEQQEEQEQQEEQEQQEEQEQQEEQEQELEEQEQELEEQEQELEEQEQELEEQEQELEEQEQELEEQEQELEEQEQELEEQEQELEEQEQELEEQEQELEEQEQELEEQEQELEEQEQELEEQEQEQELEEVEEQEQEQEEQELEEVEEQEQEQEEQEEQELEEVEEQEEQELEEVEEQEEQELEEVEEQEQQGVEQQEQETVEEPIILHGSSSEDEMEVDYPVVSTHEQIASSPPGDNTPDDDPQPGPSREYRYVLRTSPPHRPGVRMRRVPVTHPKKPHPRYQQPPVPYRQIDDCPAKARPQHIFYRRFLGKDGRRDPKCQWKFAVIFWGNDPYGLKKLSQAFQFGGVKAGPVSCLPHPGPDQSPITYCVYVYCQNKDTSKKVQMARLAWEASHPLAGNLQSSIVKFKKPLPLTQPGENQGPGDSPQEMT
# B2AR ag: beta2AR agonists driving receptor internalization, primary screen, cell-based, FAP fluorogen, flow cytometry; Beta-2 adrenergic receptor (Homo sapiens), P07550; Am2.2-beta2AR cells; reference of the scale not given here; response, % (concentration not given with the values); 340,000 tested, 0.43% active;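 active = response above a set limit, near 3 SD of response in nonfluorescent compounds, cut at about 42% in these data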;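 also: stock transfer was 100 nL into about 11 µL; a reference agonist was the positive control; negative values mostly stem from fluorescent compounds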
# RanGTP-Impb inh: inhibitors of RanGTP-importin-beta interaction, primary screen, biochemical, FRET, CFP-Ran, YFP-importin-beta, homogeneous. cell-free CFP-Ran/YFP-importin-beta FRET ratio. 300,000 tested, 1.1% active. AID 2216, 2009. inhibition, % (no concentration beside the values);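 active = most replicates above 15%; inconclusive = exactly half above 15%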;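 also: 0% = DMSO wells and 100% = Ran loaded with GDP instead of GTP; wells of about 40 µL received 100 nL stock; the first replicate is given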
# HNF4A DNA FP: change in binding of human HNF4A to DNA, primary screen, biochemical, fluorescence polarization, FITC-DNA; 360,000 tested, 0.3% active; 1 h; Hepatocyte nuclear factor 4-alpha (Homo sapiens), P41235; activity change, % at 10 µM; in the data active = activity change above about 30%, passing the limit was not always enough;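 also: controls were the assay level and a saturating level of protein; the project sought stronger binding though the title names inhibitors; some compounds called inactive have numbers as strong as hits; positive values seem to mean higher polarization but the record does not say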
# * marks the source's active call; other numbers are inactive results; ? = inconclusive; / = not tested or not shown; & = joins results of further samples. Hits appear at their usual frequency, and some 6.3% of all compounds hit somewhere here.
# Sequence of screens: ALR inh	Vif A3G	Calb FLC	LANA-H2B inh	B2AR ag	RanGTP-Impb inh	HNF4A DNA FP
> CC1CCN(c2c(NCc3ccc(C(=O)N4c5ccccc5CC4C)cc3)c(=O)c2=O)CC1 (stereo not given)
    -2	23%	-2	-0.1	-38	-0.3	4.1
> O=c1c2ccccc2[nH]c(=S)n1Cc1ccccc1Cl
    /	-1%	8	1.1	-1	0.9	2.0
> N#CCCn1c(=O)n(CCC#N)c2ccccc21
    -4	5%	1	2.1	-8	/	5.9
> CC1Cc2nc(SCC(=O)Nc3ccc(F)cc3F)n(C)c(=O)c2S1 (stereo not given)
    99*	-7%	9	-6.2	-2	4.7	-0.7
> COc1ccc(-n2cc(CNC3CCOCC3)c(-c3cccc(F)c3)n2)cc1
    -7	-3%	11	1.4	1	0.5	0.8
> COc1ccc(C2/C(=C(/O)c3ccc(C)cc3)C(=O)C(=O)N2c2ccccn2)cc1 (stereo not given)
    4	-5%	7	6.5	-8	2.0	0.0
> CCCC(=O)N(Cc1cc2cc(C)ccc2[nH]c1=O)c1ccccc1OC
    12	0%	/	4.6	4	5.0	0.2
> CC(C)(C)C1CCC(OCC(O)CN2CCN(Cc3ccccc3)CC2)CC1 (stereo not given)
    -46	0%	2	4.1	-2	0.0	1.5
> COCCn1cnc2c1c(=O)n(CC(=O)OCC(=O)NCC(F)(F)F)c(=O)n2Cc1ccccc1
    -31	10%	-5	-1.4	1	0.4	-1.3
> CCOc1ccc([C@@H]2CC=C(C(=O)O)[C@H](c3cccc(Cl)c3)N2S(=O)(=O)c2ccc(C)cc2)cc1
    6	/	/	-0.9	-8	/	-0.4
> CN(C)c1cc(N)c2ccccc2n1 (tested in a mixture with another compound)
    -16	-7%	-1	5.8	4	4.3	5.4
> COCCN(C(=O)COC(=O)c1ccc(C=O)cc1)c1c(N)n(Cc2ccccc2)c(=O)[nH]c1=O
    4	-2%	4	2.8	-4	-1.0	0.5
> CC(CNC(=O)CN1C(=O)c2cccnc2Oc2ccc(Cl)cc21)c1ccccc1 (stereo not given)
    -12	0%	1	0.9	-1	2.5	-3.0
> NC(=O)C1(N2CCCCC2)CCN(C2CC(=O)N(CCc3ccccc3)C2=O)CC1 (stereo not given)
    0	-4%	-5	0.9	-4	-1.3	0.7
> CCC1=NN(C(=O)C(=O)Nc2ccc(OC)cc2)C(O)(C(F)(F)F)C1 (stereo not given)
    -2	-3%	-5	7.0	4	5.1	-1.9
> COc1ccc(-n2nc(C(=O)O)cc2-c2ccccc2)cc1
    -5	1%	-1	-0.8	2	0.1	-2.9
> O=c1oc2ccccc2cc1-c1cn2cccnc2n1
    -2	18%	-23	3.4	-6	2.4	1.8
> CCCCNC(=O)CCn1c(=O)c2ccccc2n(CC(=O)Nc2ccccc2OCC)c1=O
    13	-9%&5%	-4	2.3	2	3.9	1.2
> O=C(Nc1ccc(C(F)(F)F)cc1)C1=NN(C2CCS(=O)(=O)C2)C(=O)CC1 (stereo not given)
    -3	2%	/	4.1	-4	/	-2.4
> Cc1nnc(SCCn2c(N3CCCCCC3)nc3c2c(=O)[nH]c(=O)n3C)s1
    0	25%	15	5.6	-32	3.8	-1.8
> COc1ccc(OC)c(S(=O)(=O)N2CCN(C)CC2)c1
    2	67%	-1	-2.2	5	0.1	1.0
> O=C(OCC(=O)N1CCCCC1)c1cccc(NS(=O)(=O)c2ccccc2)c1
    /	7%	0	3.4	3	3.4	-2.6
> O=C(Nc1ccc2c(c1)C(=O)OC2)Nc1cccc2ccccc12
    -5	4%	4	5.5	15	-0.5	-2.4
> Cc1nn(-c2ccccc2)c(Cl)c1C(=O)N(C)CC(=O)Nc1cccc(F)c1
    -2	-2%	8	1.6	1	-3.5	1.8
> COCCNC(=O)c1cn(CCOC)c(=O)c2c1c1ccccc1n2C
    -8	-11%	0	3.4	0	11	-1.9
> CCn1c(CNc2ccc(Cl)cc2)nnc1SCC(=O)OC1CCCCC1
    26	-2%	-7	4.6	11	-1.8	-0.2
> CCOC(=O)C1(CCOc2ccccc2)CCN(Cc2ccc(C(=O)OC)cc2)CC1
    -2	/	6	-5.6	2	-4.5	-0.3
> Cc1nc(Sc2ccccc2)c(C#N)c(C)c1[N+](=O)[O-]
    /	-6%	-19	-6.6	2	6.8	-8.3
> CN(C)S(=O)(=O)c1cc(NC(=O)CN2C(=O)NC3(CCCc4ccccc43)C2=O)ccc1Cl (stereo not given)
    1	-3%	1	2.7	-5	2.4	4.8
> O=C(CSc1ncccn1)NCCC1=CCCCC1
    -2	4%	-6	-1.9	-1	-1.4	-0.6
> COc1ccc(C)cc1NC(=O)C(CCS(C)(=O)=O)NC(C)=O (stereo not given)
    -21	1%	-3	-0.6	-3	-0.8	-0.9
> CC1CCc2nn(CC(=O)NCCCN3CCCCC3)cc2C1 (stereo not given)
    /	4%	0	-0.1	-2	?	2.5
> O=C(O)/C=C/C(=O)Nc1ccc(OC(F)(F)F)cc1
    -2	?	-8	-21	0	-0.1	-1.6
> O=c1cc(CSc2nnc(-c3cccs3)n2Cc2ccccc2)nc2sc3ccccc3n12
    -14	3%	35	1.2	-18	2.9	-12
> O=C1OCC2=C1C(c1ccc(Cl)cc1)CC(=O)N2c1ccc(F)cc1 (stereo not given)
    /	-7%	-2	-0.3	-7	-2.9	5.0
> CCOC(=O)CN1C(=O)N[C@@H](c2ccccc2)[C@H](C(C)=O)[C@H]1C
    -1	/	-13	0.1	2	-1.2	3.1
> CC(=O)NCCOC(=O)c1nn(Cc2ccccc2)c(=O)c2ccccc12
    /	2%	-1	8.6	-4	-3.1	11
> CC(=O)N1CCCc2cc(S(=O)(=O)N3CCN(c4ccccn4)CC3)ccc21
    /	5%	3	2.5	-10	1.5	0.1
> Cc1nonc1NC(=O)CSc1cn[nH]n1
    /	/	-19	-3.8	-1	4.1	-3.6
> O=C(c1ccc2nsnc2c1)N1CCN(c2ccc([N+](=O)[O-])cc2)CC1
    49	/	-11	-0.1	-5	-1.1	3.4
> COC(=O)Nc1ccc([N+](=O)[O-])cc1OC
    /	16%	-2	0.1	3	1.7	1.8
> Cc1ccccc1NS(=O)(=O)c1ccc(C(=O)N2CCCCCC2)cc1
    -7	5%	/	0.2	7	7.6	-7.7
> CC1(C(=O)N2CCN(C(=O)c3ccco3)CC2)CC1(Br)Br (stereo not given)
    1	0%	0	-1.6	-4	2.1	2.6
> Cc1ccc(-c2nc(CSc3nc4ccccc4c(=O)n3C)cs2)cc1
    98*	-25%	0	-0.2	-8	-3.3	0.7
> O=C(CSc1nc2ccccc2c(=O)n1-c1ccccc1F)Nc1ccc2c(c1)CCC2
    -1	18%	13	8.9	-1	1.1	-0.6
> Cc1noc(C)c1S(=O)(=O)N1CCC(C(=O)N2CCC(N3CCCCC3)CC2)CC1
    2	8%	1	-2.9	8	-2.8	-0.6
> CCOCc1cnc(C)nc1NCC(=O)c1c(C)[nH]c2ccccc12
    0	7%	-4	0.1	3	3.9	-0.9
> COc1cc(C2c3c(oc4ccccc4c3=O)C(=O)N2Cc2ccco2)ccc1O (stereo not given)
    2	11%	-5	3.4	-9	7.2	-1.8
> COc1ccc(-c2nnc(SCC(=O)c3ccc(C)o3)o2)cc1
    /	-7%	11	/	1	-1.8	4.9
> CC(Oc1cc2oc(=O)c3c(c2cc1Cl)CCCC3)C(=O)NCCN1CCOCC1 (stereo not given)
    1	/	-3	2.4	-16	4.7	-1.4
> CCOC(=O)c1c(NC(=O)CSc2ccccc2C(=O)O)sc(C)c1C
    6	-3%	65	-0.2	1	3.6	-2.3
> CCN(c1cc(C)cc(C)c1)S(=O)(=O)c1nnc(NC(=O)c2ccco2)s1
    -10	22%	10	-2.4	-11	0.2	0.0
> CCOC(=O)c1cc(NC(=O)c2cccs2)ccc1N1CCOCC1
    2	1%	-2	5.2	-10	2.7	3.5
> CCOc1cc(-c2nc3n(c(=O)c2C#N)CCS3)ccc1O
    -4	2%	8	-1.6	-1	2.7	-0.7
> Cc1ccc(-n2c(SCC(=O)Nc3ccc4c5c(cccc35)CC4)nc(O)cc2=O)cc1
    /	?	24	6.3	7	-3.2	2.1
> O=C(CSC(=S)N1CCCC1)NCCc1ccccc1
    7	4%	7	-6.9	-1	-2.1	-6.0
> O=C(/C=C/c1ccc(Cl)c(Cl)c1)N1CCc2ccccc21
    -10	?	1	0.7	-10	3.3	-0.2
> Cc1cc(Br)ccc1SCC(=O)OCC(=O)NC1CC1
    -1	-2%	26	-7.5	15	-4.6	-0.7
> Cc1cc(C)cc(NC(=O)Cn2cc3c(n2)CCCCC3)c1
    -21	1%	-15	3.6	/	-0.4	/
> CN(C)c1ccc(/C=N/NC(=O)C[n+]2ccccc2)cc1
    99*	/	-14	-3.6	2	2.1	1.0

# (cont.)
# Sequence of screens: ALR inh	Vif A3G	Calb FLC	LANA-H2B inh	B2AR ag	RanGTP-Impb inh	HNF4A DNA FP
> O=C(N/N=C/c1ccccn1)c1cc(-c2ccncc2)nc2ccccc12
    0	25%	-2	-0.5	-2	0.6	-4.1
> COc1cccc(CN2CCN(C3CCOCC3)CC2CCO)c1 (stereo not given)
    /	-6%	-13	/	0	0.4	-0.2
> COc1ccc2nc(N3C(=O)CC(Cc4ccc(C)cc4)C3=O)sc2c1 (stereo not given)
    -2	/	2	-7.4	10	-0.9	-2.2
> CC(C)Cn1nc(C(=O)Nc2cccc(C(=O)NC3CC3)c2)c2ccccc2c1=O
    -4	-13%	/	-10	-16	/	-0.3
> CCN(CC(=O)NCc1ccc(Cl)cc1)C(=O)CSc1ccccc1
    5	6%	1	-2.2	-3	/	-0.6
> Cc1nn2cc(-c3cccc(Cl)c3)cnc2c1Cl
    /	-6%	-2	/	-4	-0.3	-2.2
> CCN1CCN(C(=O)c2ccc(CS(=O)Cc3ccc(C)cc3)o2)CC1 (stereo not given)
    -5	/	-10	-1.7	0	2.9	3.3
> Cc1ccc(CNC(=O)CCCn2c(=O)[nH]c3ccccc3c2=O)cc1
    2	-5%	6	-1.2	-17	-0.4	-0.2
> CCCCNC(=O)CCn1c(=O)c2ccccc2n(Cc2ccc(F)cc2)c1=O
    -14	-2%	-5	4.0	2	?	2.0
> NC(=O)c1cc[n+](CC2=C(C(=O)O)N3C(=O)[C@@H](NC(=O)C(c4ccccc4)S(=O)(=O)[O-])[C@H]3SC2)cc1 (stereo not given in full)
    /	29%	/	4.8	-4	5.8	-78
> O=C(NCc1cccc(Cl)c1)c1ccc(-c2csnn2)cc1
    2	-13%	-1	1.4	15	0.0	-3.2
> CCOC(=O)CNC(=O)CSc1nc2nc(C)c(Br)cc2[nH]1
    -6	2%	-1	-1.9	-2	4.5	4.9
> C/C(CC(=O)Nc1ccc2c(c1)OCCO2)=N\NC(=O)Cc1ccc(Cl)cc1
    2	/	0	4.9	-5	0.3	4.7
> O=C(CSc1nnc(-c2ccncc2)n1Cc1ccccc1)NC1CCCc2ccccc21 (stereo not given)
    /	/	?	-1.7	-13	1.9	2.5
> Cc1c(OC(=O)c2ccc([N+](=O)[O-])cc2)c2c(c[n+]1C)COC(C)(C)OC2
    -11	?	6	4.6	-5	?	3.2
> Cc1ccc(S(=O)(=O)N(C)CC(=O)Nc2ccccc2)cc1
    -11	7%	7	-0.9	-1	5.2	3.2

# Assay outcomes from PubChem BioAssay.
